# eIF4H FP inh: human eIF4H binding inhibitors, primary screen, translation initiation inhibitor project, biochemical, uHTS, fluorescence polarization. Eukaryotic translation initiation factor 4H (Homo sapiens), Q15056. eIF4H fluorescence polarization binding assay. inhibition, % at 35 µM. 290,000 tested, 0.94% active. AID 2012, 2009;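 active means 50% or more with normal probe brightness, or confirmed in later tests; inconclusive means above 50% with abnormal brightness, or retests that disagree; inactive means below 50% or failed in later tests; about a fifth of its hits are not listed in these tables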;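 further: calls also rest on retests at 20 µM and on dose response follow-up; 0% = protein and probe with vehicle and 100% = probe without protein; strong numbers were not always called active; many hits fall short of the cut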
# MT1-MMP act inh: blockers of MT1-MMP proenzyme processing, primary screen, HT1080 RFP-PRO-GFP cells, GFP/RFP fluorescence; Matrix metalloproteinase-14 (Homo sapiens), P50281; GFP/RFP ratio fluorescence, overnight; percent of plate control window, DMSO zero; GFP/RFP ratio change, % at 20 µM; 360,000 tested, 0.061% active; AID 651647, 2012;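 active means GFP/RFP ratio change of at least 30% with cell ATP level not reduced by more than half and red fluorescence within 50% of control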; further: strong numbers were not always called active
#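 Assay system: HT1080 RFP-PRO-GFP cells | Dosing: 20 µM single dose, 1% DMSO | Incubation: Cells overnight before dosing, compound overnight, 37 °C, 5% CO2 | Evaluation: GFP/RFP fluorescence ratio | Control set: DMSO-only wells and HT1080 RFP-L50D-GFP cell wells as references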
# Rce1 inhib: yeast Rce1p protease inhibitors, primary screen, biochemical, fluorescence, cell-free homogeneous | 290,000 tested, 0.27% active | calls only | yeast membranes, quenched prenylated peptide cleavage fluorescence;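 active means fall in fluorescence gain of 50% or more versus controls, with final raw signal at or below 3038400; inconclusive means same 50% fall but final raw signal above 3038400; inactive means fall in fluorescence gain under 50%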;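 further: plate controls were neutral control wells for no effect and wells lacking membranes for full effect; tested at 10 µM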
# Yeast UUG start: modulators of yeast start codon fidelity, primary screen, whole organism, S. cerevisiae, single point, plate reader | S. cerevisiae UUG-firefly luciferase reporter, luminescence/redox ratio | activity score, % at 18.7 µM | 350,000 tested, 0.13% active;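 active means replicate mean at a twofold rise or more, about +100% in these data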;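 further: firefly luciferase made from a UUG start codon reports start codon fidelity; reporter light over untreated wells divided by growth signal over untreated wells; some hits fall short of that in this replicate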
# CSC inhib: cancer stem cell viability inhibitors, primary screen, luminescence | cancer stem cell-like cells viability | inhibition, % at 7.5 µM | 300,000 tested, 1.1% active | AID 2717, 2010;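 active means mean at 75% or more and at least half the replicates too; inconclusive means mean and replicates disagree; tested in HMLE shEcad cells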;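 further: 0% = median of negative and 100% = median of positive control wells; the first replicate is given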
# PABP FP inh: PABP poly(A) RNA binding inhibitors, primary screen, biochemical, fluorescence polarization, uHTS; 290,000 tested, 1% active; Polyadenylate-binding protein 1 (Homo sapiens), P11940; inhibition, % at 35 µM; AID 2014, 2009;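 active means 50% or more with normal probe brightness, or confirmed in later tests; inconclusive means above 50% with abnormal brightness, or retests that disagree; inactive means below 50% or failed in later tests; about a fifth of its hits are not listed in these tables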;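 further: calls also rest on retests at 20 µM and on dose response follow-up; controls were probe without protein and protein plus probe with vehicle; some compounds called inactive have numbers as strong as hits; many hits fall short of the cut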
# Target sequence (P11940 whole entry, looked up): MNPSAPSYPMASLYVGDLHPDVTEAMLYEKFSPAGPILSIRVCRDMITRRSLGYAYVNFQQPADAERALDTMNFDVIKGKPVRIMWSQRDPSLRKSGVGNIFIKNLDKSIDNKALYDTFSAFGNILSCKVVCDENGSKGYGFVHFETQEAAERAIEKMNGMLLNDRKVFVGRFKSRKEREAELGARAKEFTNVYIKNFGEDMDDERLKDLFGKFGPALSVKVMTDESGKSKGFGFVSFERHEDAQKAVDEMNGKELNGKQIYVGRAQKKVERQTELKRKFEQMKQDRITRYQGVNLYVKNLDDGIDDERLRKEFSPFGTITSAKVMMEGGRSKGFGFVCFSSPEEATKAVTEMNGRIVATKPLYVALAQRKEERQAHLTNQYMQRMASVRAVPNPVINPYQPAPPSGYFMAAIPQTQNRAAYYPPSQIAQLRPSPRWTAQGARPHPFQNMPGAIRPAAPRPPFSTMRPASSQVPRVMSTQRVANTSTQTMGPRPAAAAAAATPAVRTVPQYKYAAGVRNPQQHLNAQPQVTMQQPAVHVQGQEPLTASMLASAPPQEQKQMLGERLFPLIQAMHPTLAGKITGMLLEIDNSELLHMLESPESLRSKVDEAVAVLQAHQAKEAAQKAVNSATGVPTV
# HIV Env fusion: inhibitors of HIV-1 Env-driven cell-cell fusion, primary screen, HeLa-JRFL effector, CEM21 target cells, luciferase; 360,000 tested, 1.1% active; AID 651610, 2012; inhibition, % at 12.3 µM;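 active means mean replicate inhibition score of at least 50 and every replicate individually at or above 50; inconclusive means only one of the two criteria met; inactive means mean below 50 and not all replicates reaching 50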;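 further: 0% = plate neutral controls and 100% = maraviroc near 300 nM; one replicate is shown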
# eIF4H FP inh retest: second read-out of eIF4H FP inh, no call of its own (marks repeat the call); inhibition, %; compound at 20 µM; confirmation average;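 mean of two retest wells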
# PABP FP inh retest: recorded beside PABP FP inh, whose call it bears; inhibition, %; compound at 20 µM; confirmation repeats;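 mean of two retest wells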
# MT1-MMP act inh RFP: further read-out of MT1-MMP act inh, marked with its call; RFP signal change, %; measured here: RFP expression control read;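 0 = vehicle wells; hits needed this value within 50% of zero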
# * hit, by the source's call; i = inactive; ? = inconclusive; nt = no result given; & = joins results of further samples. This is a subset; the hit share may differ from the screen's.
SMILES,eIF4H FP inh,MT1-MMP act inh,MT1-MMP act inh RFP,Rce1 inhib,Yeast UUG start,CSC inhib,PABP FP inh,HIV Env fusion,others
O=c1cnnc(Nc2ccc(Nc3ccccc3)cc2)[nH]1,2,1,-3,i,nt,11,-4,4,
Cc1nc2c(C)cccc2cc1C(=O)N/N=C/c1ccc(O)cc1,-3,3,-1,i,nt,69,-3,21,
O=C(CCc1nc(-c2ccccc2)no1)NCCc1ccccc1,0,-4,0,i,nt,-4,4,nt,
CCN(CC)CCn1nc(C)nc1-c1ccccc1O,-6,4,4,i,-1,5,4,nt,
COc1ccc(-c2noc(=O)n2Cc2cc(C)ccc2C)cc1,0,0,-1,i,nt,62,-2,18,
O=C1c2cccc3cccc(c23)C(=O)N1CCN1CCN(C(=S)Nc2ccc(Cl)cc2)CC1,0,0,-5,i,-7,-11,4,-33,
CC(C)(O)C#Cc1ccc(CN2CCN(C3CCCCC3)C(CCO)C2)s1 (stereo not drawn),-5,-4,1,i,-9,3,-7,7,
COc1ccc(CNS(=O)(=O)CCNC(=O)c2ccc(OC)cc2)cc1,nt,-1,1,i,-8,nt,nt,-12,
N=c1ccn(Cc2ccc([N+](=O)[O-])cc2)cc1,-1,3,0,i,nt,12,1,-87,
CC12CCC(C(=NO)C1=NO)C2(C)C (stereo not drawn),nt,-2,6,nt,-23,nt,nt,-15,
COc1ccc(Cl)cc1NC(=O)CN1CCN(S(=O)(=O)N2CCOCC2)CC1,-12,1,-2,i,-7,-14,0,1,
Nc1c(C(=O)Nc2ccc(Br)cc2)sc2nc(-c3ccco3)ccc12,81*,-26,-8,i,-2,-3,50*,?,eIF4H FP inh retest=85*;PABP FP inh retest=90*
O=C(NN=C1CCN(Cc2ccccc2)CC1)c1cc2ccccc2cc1O,97*,9,3,i,nt,8,3.6*,5,eIF4H FP inh retest=86*;PABP FP inh retest=66*
COc1cccc(NC(=O)C2(C)CCN2Cc2ccc(SC)cc2)c1 (stereo not drawn),nt,1,-5,nt,-2,nt,nt,27,
Cc1cc(C)cc(NC(=S)N2CCN(S(C)(=O)=O)CC2)c1,-2,-1,0,i,-18,-8,-1,-22,
O=C(Cn1c(=O)oc2ccccc21)NCCc1ccccc1Cl,3,5,3,i,-4,nt,0,17,
COc1ccc(C2(C)NC(=O)N(CC(=O)Nc3c(C)n(C)n(-c4ccccc4)c3=O)C2=O)cc1 (stereo not drawn),nt,-1,6,i,-18,-10,nt,-4,
O=S(=O)(NCCN1CCOCC1)c1ccc(Oc2ccccc2Cl)cc1,1,5,-9,i,-4,7,0,2,
CSCC[C@H](NC(=O)N1CCn2c1nc1ccccc12)C(=O)NCc1ccccc1,-2,3,0,i,-13,-12,-5,4,
O=C(CN(Cc1ccccc1)C(=O)c1cc2c(s1)CCC2)NCc1cccs1,-12,2,-3,i,-15,-15,6,-63,
COc1ccc(OCCOCCN2CCN(C)CC2)cc1,12,3,3,i,-7,-17,6,0,
O=C(N/N=C/c1ccc2c(c1)OCO2)c1ccc(COc2cccc3cccnc23)cc1,?,2,1,i,nt,46,1,8,
COc1ccc(NC(=O)CSc2nc(N)c(NC(=O)c3cccs3)c(=O)[nH]2)cc1,-11,1,2,i,-1,9,0,-1,
O=C(NCCc1ccccc1)c1ccc2c(c1)OCO2,5,3,3,i,-78,2,6,17,
OCCC1CN(Cc2ccc3cccc(F)c3n2)CCN1Cc1ccccc1 (stereo not drawn),-11,2,6,i,-12,3,4,-7,
C=CS(=O)(=O)c1ccc(Oc2ccc(S(=O)(=O)C=C)cc2)cc1,8,-15,-28,i,nt,-10,111,-355,eIF4H FP inh retest=16;PABP FP inh retest=32
COc1ccc(CNC(=O)C(C)NS(=O)(=O)c2ccc(C)cc2)cc1 (stereo not drawn),-4,1,-2,i,nt,-18,6,5,
CCNC(=S)N1CCc2cc(OC)c(OC)cc2C1COc1ccc(OC)cc1 (stereo not drawn),-5,1,1,i,nt,-5,3,18,
COc1ccc(S(=O)(=O)N2CCOC2CNC(=O)C(=O)NCCCN2CCOCC2)cc1 (stereo not drawn),0,-3,-4,i,-2,6,11,nt,
C=CCn1c(=O)c2ccccc2n2c(SCC(=O)NC)nnc12,-6,-2,-1,i,19,nt,11,-50,
CCOC(=S)SCC(=O)Nc1nc(-c2ccccc2)cs1,-8,10,-2,i,-11,58,-6,-101,
COc1ccc(-c2cc(CNS(=O)(=O)c3cc(OC)ccc3OC)on2)cc1,2,-2,2,i,-5,-11,10,-8,
COc1ccc(/C=N/n2c(N)nc3ccccc32)cc1OC,-9,5,3,nt,-17,-17,3,nt,
Cc1cccc(OCC(=O)O/N=C(\N)Cc2cccs2)c1,1,-2,-2,i,15,nt,-5,-45,
CC(C)(C)c1cc(NS(=O)(=O)c2cccs2)no1,2,-4,-3,i,-29,71,10,-69,
COCCC(=O)N1CCC(Oc2ccc(C(=O)N3C[C@@H]4CCC[C@H]3C4)cc2)CC1,0,2,-2,i,-1,17,9,1,
Cn1cccc1CNCC(O)c1ccccc1 (stereo not drawn),-8,-4,-3,i,11,-13,-8,-111,
CS(=O)(=O)c1ccc(Cl)c(NC(=O)Cc2ccsc2)c1,-7,1,6,i,-9,nt,-11,5,
O=S(=O)(/N=C(\Sc1ccccc1)c1ccccc1)c1ccc(Cl)cc1,0,0,0,i,0,nt,-4,-19,
Cn1c(SCC(=O)N/N=C/C=C/c2ccco2)nc2ccccc21,93,1,7,i,nt,-4,-4,-3,eIF4H FP inh retest=-1;PABP FP inh retest=5
CCN1CC2=C(OC(N)=C(C#N)C2c2ccccc2)/C(=C\c2ccccc2)C1 (stereo not drawn),13,6,7,i,-3,1,34,nt,
N#C/C(=C\c1coc2ccc(O)cc2c1=O)C(=O)Nc1nc2ccccc2s1,?,-56,24,i,-16,59,?,5,
Cc1ccccc1OCC(=O)NNC(=S)NC(=O)c1ccccc1[N+](=O)[O-],10,9,7,i,-13,-19,-9,5,
O=C1CC(NS(=O)(=O)c2cccnc2)CN1c1ccccc1 (stereo not drawn),nt,12,2,i,-8,-7,nt,-11,
COc1ccc(CCNC(=O)C(=O)NCC2CCCO2)cc1 (stereo not drawn),0,1,0,nt,-9,-16,14,nt,
Cc1cc(F)ccc1C(O)c1ncc(-c2ccc(Oc3ccccc3)cc2)[nH]1 (stereo not drawn),nt,-5,-12,nt,-18,nt,nt,2,
CCOC(=O)N1CCN(C(=O)/C=C/c2cccc([N+](=O)[O-])c2)CC1,-2,-2,1,i,nt,-5,0,11,
CCCCN(C(=S)Nc1cccc(SC)c1)C1CCN(C(C)=O)CC1,-6,2,0,i,-15,-16,-9,-10,
CCOc1ccc(-c2nc(CSc3nnc(N)s3)cs2)cc1,-2,8,-11,i,3,-3,-8,nt,
C=CCNC(=S)Nc1ccc(OC(F)F)c(Cl)c1,-1,5,-5,i,nt,1,-12,2,
C[C@@H]1CCCCO[C@H](CN(C)Cc2ccccc2)[C@@H](C)CN([C@H](C)CO)C(=O)c2cc(NC(=O)c3ccccc3)ccc2O1,nt,-3,1,nt,-2&-9,nt,nt,-64,
Cc1ccc(NCc2ccccc2O)cc1C,-5,4,1,i,-6,nt,-6,-17,
CCOC(=O)c1cccc(NC(=O)C(C)N2C(=O)c3ccccc3C2=O)c1 (stereo not drawn),-2,-1,-4,i,-9,-18,-6,nt,
Cn1c(=O)c(=O)n(C)c2cc(S(=O)(=O)N3CCOc4ccccc43)ccc21,2,2,0,i,2,nt,2,-1,
Cn1c(SCc2ccon2)nc2ccccc2c1=O,1,-5,-4,i,-23,-26,-4,-24,
Cc1ccccc1NC(=O)C(Cl)=C(Cl)Cl,-4,-8,-3,nt,-7,?,4,39,
COc1cc2c(cc1OC)C(C)N(C(=O)c1cc(C)on1)CC2 (stereo not drawn),4,15,-1,i,-10,54,5,18,
O=C(N/N=C/c1cccc(OC(=O)N2CCOCC2)c1)c1cccs1,-8,5,-1,i,nt,4,-9,-15,
CCCc1nn(-c2ccccc2)c2c1C(c1cccs1)C(C#N)=C(N)O2 (stereo not drawn),6,-1,1,i,nt,5,5,nt,
CCOC(=O)c1c(C)[nH]c(C)c1C(=O)COc1ncnc2ccccc12,2,-3,-3,i,-12,nt,66,-14,eIF4H FP inh retest=-10;PABP FP inh retest=17
# Next section:
SMILES,eIF4H FP inh,MT1-MMP act inh,MT1-MMP act inh RFP,Rce1 inhib,Yeast UUG start,CSC inhib,PABP FP inh,HIV Env fusion,others
CCOCCn1c(CN2CCN(C(c3ccccc3)c3ccccc3)CC2)nc2c1c(=O)n(C)c(=O)n2C,6,-4,-7,i,-7,10,0,-23,
S=C(NCC1CCCO1)Nc1ccc(Nc2ccccc2)cc1 (stereo not drawn),-4,2,-7,i,nt,0,1,-12,
CN1CCN(CCC(=O)Nc2cccc(Br)c2)CC1,-4,2,5,i,nt,-7,6,2,
CCOc1ccccc1CN1CCN(Cc2[nH]c3ccccc3c2C)CC1CCO (stereo not drawn),3,0,5,i,8,18,-9,-34,
CCC(C)(CC(=O)O)CC(=O)Nc1cc(C(F)(F)F)cc(C(F)(F)F)c1 (stereo not drawn),-11,3,-2,nt,nt,32,-2,10,
CC(=O)N(Cc1cc(=O)[nH]c2ccccc12)c1ccccc1C,10,-6,-3,i,-29,-14,9,11,
O=C(COc1ccc(Cl)cc1)N1CCCCC1,-14,-5,-4,i,-11,15,-6,nt,
O=C(Nc1ncn[nH]1)c1ccccc1Br,4,13,9,i,-6,-18,-2,nt,
CC(C)(C)C(=O)Nc1cccc(-c2nc3ccccc3[nH]2)c1,-3,1,1,i,1,-4,-2,nt,
Cc1c(-c2nc(-c3ccc(C(F)(F)F)cc3)no2)n(C)oc1=O,5,1,-4,i,2,-1,-1,-52,
Cc1ccc(/C=N/NC(=O)c2c(-c3ccccc3)noc2C)c(O)c1,2,-3,-6,i,-10,51,-8,42,
COc1cc(NC(=O)CSc2nc(C)cs2)cc(OC)c1,-2,-3,-2,i,-14,21,1,nt,
CC1=C(C(=O)NC2CC(C)(C)Cc3c2cnn3-c2cccc(F)c2)OCCO1 (stereo not drawn),nt,2,2,i,-5,-2,nt,12,
COc1ccc(Cc2c(O)nc(SCC(=O)NC34CC5CC(CC(C5)C3)C4)[nH]c2=O)cc1,-4&14,-7&-4,-1&-1,i,1,-1&-9,4&-10,-2&-7,
Cc1ccc(Cl)cc1NC(=S)N(CCN(C)C)Cc1cccs1,2,1,2,i,nt,2,-5,0,

# Retrieved by structure from the entries so far (2):
SMILES,eIF4H FP inh,MT1-MMP act inh,MT1-MMP act inh RFP,Rce1 inhib,Yeast UUG start,CSC inhib,PABP FP inh,HIV Env fusion,others
O=C(Nc1ncn[nH]1)c1ccccc1Br,4,13,9,i,-6,-18,-2,nt,
COc1cc(NC(=O)CSc2nc(C)cs2)cc(OC)c1,-2,-3,-2,i,-14,21,1,nt,

# Screening data as filed in PubChem BioAssay.
